Vaccinia Venus: qHTS for Stage-Specific Inhibitors of Vaccinia Orthopoxvirus: Venus Reporter Primary qHTS | Vaccinia virus Venus reporter expression, fluorescence | Potency, µM (series often up to 36.5 µM), inactives show top-dose activity change, negative = inhibition, usual class: inhibitors | actives 0.46% (n = 330,000) | AID 720580, 2013; active means well fitted inhibition curve with a large enough effect; inconclusive means small, poorly fitted or top-dose-only effect; inactive means no such curve, though single readings can be large or run the other way; tested in A549 cells; further: nearly all actives have a fitted effect of over 30% in size; inactives centre near -10
VACV mCherry inh: qHTS for Stage-Specific Inhibitors of Vaccinia Orthopoxvirus: mCherry Reporter Primary qHTS; Vaccinia virus mCherry reporter infection, fluorescence; about a quarter of the inactives have no number; Potency, µM (top dose mostly 36.5 µM), inactives show at the top dose activity change, negative = inhibition, most hits filed as inhibitors; actives 0.63% (n = 310,000); AID 720579, 2013; active = well fitted inhibition curve with a large enough effect; inconclusive = small, poorly fitted or top-dose-only effect; inactive = no such curve, though single readings can be large or run the other way; tested in A549 cells; further: nearly all actives have a fitted effect of over 35% in size; inactives centre near -10
Starred values were filed as active, the others as inactive; i = inactive; ? = inconclusive; / = not tested or not shown. On the % scale 0 is the no-effect control and ±100 the full control effect; potency means the concentration at half of the fitted maximal effect.

Results follow in this order: Vaccinia Venus	VACV mCherry inh
> CC1Oc2cc3c(-c4c(O)cc(O)c5c(O)c6c(cc45)OC(C)C(C)C6=O)c(O)cc(O)c3c(O)c2C(=O)C1C (stereo not given)
    4µM*	?
> Cc1cc(C)c(S(=O)(=O)N2CCN(Cc3nc4ccc(C)cc4o3)CC2)c(C)c1
    -1%	-16%
> CCC(=O)Nc1ccccc1-c1nc2ccccc2n(CC(=O)Nc2ccc(C)c(C)c2)c1=O
    -8%	-1%
> COc1ccccc1C(CNC(=O)C(CCSC)NC(=O)c1ccccc1Cl)N1CCCC1 (stereo not given)
    -11%	-17%
> O=C(O)CCNS(=O)(=O)c1ccc(Oc2ccccc2)cc1
    -6%	i
> O=C(Cn1cc(S(=O)(=O)N2CCCC2)c(S(=O)(=O)N2CCCC2)c1)Nc1cccc(F)c1
    -2%	-5%
> CCOC(=O)CCC(NC(=O)CCCCCCCC(=O)NC(CCC(=O)OCC)C(=O)OCC)C(=O)OCC (stereo not given)
    -1%	-11%
> CCCN1CNc2c(c(=O)[nH]c(=S)n2CCc2cc(Cl)ccc2Cl)C1
    -24%	-9%
> CC(C)CNc1ncnc2c1ncn2[C@H]1CN(Cc2ccc(F)cc2)C[C@@H](CO)O1
    -2%	i
> O=C(CSC(=S)N1CCOCC1)Nc1ccc(S(=O)(=O)Nc2ncccn2)cc1
    2%	-9%
> CCOC(=O)NC(=O)CSc1ccc2ccccc2n1
    -19%	-7%
> COc1ccc(CCNC(=O)C2CCCN(C(=O)c3ccc(Cl)cc3)C2)cc1 (stereo not given)
    -5%	i
> CN(C)S(=O)(=O)c1cccc(NC(=O)CN2C(=O)C3C4C=CC(C4)C3C2=O)c1 (stereo not given)
    -18%	i
> COc1ccc(NC(=O)CCCCn2c(=O)[nH]c3ccccc3c2=O)cc1
    -15%	-23%
> Cc1nc(-c2cccc(NC(=O)Cc3ccccc3)c2)cs1
    -19%	-18%
> O=C(CCCc1ccccc1)Nc1nccs1
    -5%	i
> N#Cc1cn(CC(=O)O)c2ccccc12
    -12%	-12%
> Cc1ccc2nc(-c3cccc(-c4nc5ccc(C)cc5o4)n3)oc2c1
    -5%	-10%
> CCC(C)n1cnc2c(=O)oc3ccccc3c21 (stereo not given)
    -4%	i
> CCNC(=O)COC(=O)c1cc(S(=O)(=O)N2CCCc3ccccc32)ccc1Cl
    -9%	-27%

Brought forward from above: 2 compounds, followed by the next part.
Results follow in this order: Vaccinia Venus	VACV mCherry inh
> CCC(C)n1cnc2c(=O)oc3ccccc3c21 (stereo not given)
    -4%	i
> CCNC(=O)COC(=O)c1cc(S(=O)(=O)N2CCCc3ccccc32)ccc1Cl
    -9%	-27%
> CCN(C(=O)C1CSC2(C)CCC(=O)N12)c1nc2c(C)cccc2s1 (stereo not given)
    -4%	-15%
> CCN(CC)CCCC(C)NC(=O)c1cc(=O)c2ccccc2o1 (stereo not given)
    -4%	-1%
> O=C(C[C@H]1C/C=C/CC[C@@H](Cc2ccc(F)cc2)C(=O)O[C@@H](c2ccccc2)CNC1=O)NCCO
    -26%	i
> Cc1ccc(CCNS(=O)(=O)c2cnc[nH]2)cc1
    -1%	-10%
> C[C@@H]1CCCCO[C@H](CN(C)Cc2ccc(C(F)(F)F)cc2)[C@H](C)CN([C@@H](C)CO)C(=O)c2cc(NC(=O)Cc3ccccc3)ccc2O1
    11µM*	?
> O=C(O)COc1ccccc1Cc1ccccc1
    -4%	/
> CC(CNC(=O)CCCn1c(=O)c2cccn2c2ccc(F)cc21)c1ccccc1 (stereo not given)
    -11%	-12%
> Cc1cccnc1NC(=O)c1ccc2c(c1)NC(=O)C(C)S2 (stereo not given)
    -6%	i
> O=C(CSc1nc(O)c(C2CCCCC2)c(=O)[nH]1)Nc1ccc(F)cc1
    -11%	-6%
> O=C(COC(=O)c1cccc(F)c1)NC1CC1
    -20%	0%
> O=C(CN1CCN(S(=O)(=O)c2ccc(F)cc2)CC1)NCC1(N2CCOCC2)CCCCC1
    -7%	-16%
> COc1cc(-c2cc(OC)c3c(C)oc(C)c3c(=O)c2)ccc1OC(=O)c1ccccc1C
    -2%	-14%
> CN(Cc1ccccc1)S(=O)(=O)c1ccc(N2CCOCC2)nc1
    -2%	i
> CCOc1ccc(CN2C(=O)c3ccccc3C2=O)cc1C(=O)O
    -14%	0%
> O=C(CCCCCCN1C(=O)c2ccccc2C1=O)NC1CCCCC1
    -7%	-10%
> COc1cc(S(=O)(=O)N2CCOCC2)ccc1NC(=O)CSc1nnc(N)s1
    -5%	-15%
> CNc1cccc(-c2ccc(N3CCN(C)CC3)nc2)n1
    -8%	i
> COc1ccc(OC)c(C2C(C(C)=O)=C(C)Nc3ncnn32)c1 (stereo not given)
    -10%	-23%
> CC(C)(C)n1nnnc1C(c1cccc(C(F)(F)F)c1)N1CCOCC1 (stereo not given)
    -8%	-9%
> Cc1ccc(S(=O)(=O)NCCC(=O)N2CCN(S(=O)(=O)c3cccc(F)c3)CC2)cc1C
    -6%	i
> O=C(O)CCC(=O)N1N=C(c2ccco2)CC1c1ccco1 (stereo not given)
    -19%	-11%
> O=C(Cn1ncc2c3ccccc3n(Cc3cccc(Cl)c3)c2c1=O)N1CCCCCC1
    -15%	-6%
> CC(N)c1csc(NC(=O)c2cc(C(C)(C)C)nn2Cc2ccccc2)n1 (stereo not given)
    -24%	-9%
> CC(C)(C)c1ccc(C(=O)NCCCNC(=O)c2cccnc2)cc1
    9%	3%
> COc1cc(OC)c(NC(=O)c2c(C)oc3ncn(C)c(=O)c23)cc1Cl
    -3%	-3%
> CC1(C(=O)NS(=O)(=O)c2ccc(F)cc2F)CCN1C(=O)CC(c1ccccc1)c1ccccc1 (stereo not given)
    4%	-6%
> Cc1ccc2nc(NCc3ccccc3)c3nnnn3c2c1
    -10%	i
> COc1ccc(C(=O)OCC(=O)N2CCc3ccccc3C2)cc1OC
    -5%	i
> O=c1[nH]c2cc(F)ccc2c2ccc(F)cc12
    -5%	-3%
> N#CC1=C(N)Oc2cc(O)ccc2C1c1ccncc1 (stereo not given)
    -16%	-12%
> Clc1ccc(/C=C/c2ncc3ccccn23)cc1
    -12%	-11%
> Cc1ccc([C@H]2C[C@H](O)[C@@H](n3cc(-c4ccc(F)cc4)nn3)CN2CC2CCCCC2)cc1
    -22%	i
> Cn1c(SCC(=O)N2CCN(C(=O)c3ccco3)CC2)nnc1-c1ccc(NS(C)(=O)=O)cc1
    -20%	i
> Cc1cc(C)nc(N2CCCC(C(=O)NCCC3=CCCCC3)C2)n1 (stereo not given)
    -6%	-17%
> CCOC(=O)[C@]12CCC=C1N(Cc1ccc3c(c1)OCO3)C(=O)[C@H](CC(=O)NCCCOC)C2
    2%	14%
> Cc1ccc(S(=O)(=O)N(C)CC(=O)OCC(=O)NCCc2ccc(S(N)(=O)=O)cc2)cc1
    -15%	-11%
> C=CC[C@@H](Cc1ccc(F)cc1)C(=O)OC[C@@H]1CCCN1C(=O)[C@H](CC=C)CC(=O)N(CCO)Cc1ccccc1
    ?	-16%
> O=C1NC[C@H](CCCCN2C[C@@H](Cc3ccccc3)N(CCC3CCCCC3)C(=O)C2=O)N(CCC2CCCCC2)C1=O
    -15%	-19%
> O=C(Cn1nnc(-c2ccccc2)n1)Nc1ccc2c(c1)OCO2
    20%	-10%
> CC1CCCCN1S(=O)(=O)c1cc2c(=O)nc3ccccn3c2cc1Cl (stereo not given)
    1%	-7%
> Cc1ccccc1CN1CCN(Cc2ccccc2C(F)(F)F)CC1
    -18%	?
> CCOC(=O)c1cccc(NC(=O)N2CCC(CN3CCc4ccccc4C3)CC2)c1
    -20%	-19%
> CCCCSc1nc(C)c(C(C)=O)cc1C#N
    -23%	/
> C/C(=N\NC(=S)NCc1ccccc1)c1ccc(Br)cc1
    -12%	-18%
> CCCN(CC(=O)Nc1ccccc1OC)C(=O)c1cnc(Cl)c(Cl)c1
    -5%	i
> CCO[C@@H]1OC(C(=O)N2CCN(Cc3ccccc3)CC2)=C[C@H](c2cn(C(C)=O)c3ccccc23)[C@H]1CCCO
    -20%	1%
> COc1cccc(N2CCN(c3ccc(S(=O)(=O)N4CCN(C)CC4)cc3[N+](=O)[O-])CC2)c1
    -29%	-30%
> CC1=NN(c2nc(N)nc(/C(C#N)=C/c3ccc([N+](=O)[O-])o3)n2)C(C)(C)C1
    9%	-3%
> CCOc1ccc(Cl)cc1-c1cc(C(=O)NCc2cc(C(F)(F)F)cc(C(F)(F)F)c2)[nH]n1
    -8%	-5%
> COc1ccc(O)c(C2(O)C(=O)c3ccccc3C2=O)c1
    -3%	-26%

Next part.
Results follow in this order: Vaccinia Venus	VACV mCherry inh
> Cc1onc(-c2c(F)cccc2Cl)c1C(=O)NCC1COc2ccccc2O1 (stereo not given)
    -12%	/
> O=C(COC(=O)c1ccc(S(=O)(=O)N2CCCC2)cc1)Nc1ccc(F)cc1F
    -16%	-3%
> CN(C)C1=NCCN1CCc1ccc(F)cc1
    0%	i
> CCC(=O)NC(C)C(c1cccs1)N1CCN(Cc2ccccc2)CC1 (stereo not given)
    5%	i
> COc1ccccc1-c1nnc(NC(=O)C(C)SC2=NCCS2)s1 (stereo not given)
    -26%	?
> Fc1cccc(Cc2noc(CN3CCCCC3CCc3ccccn3)n2)c1 (stereo not given)
    -15%	-15%
> COc1ccc2ccccc2c1/C=N/NC(=O)c1ccc([N+](=O)[O-])cc1
    -5%	-14%
> O=C(CCCc1ccccc1)c1ccccc1
    2%	6%
> COc1ccc(CC2(CO)CCN(CC3=Cc4cc(Cl)ccc4OC3)CC2)cc1
    ?	?
> COc1ccc(NS(=O)(=O)c2ccc(C)c(C(=O)N(C)CCc3ccc(OC)c(OC)c3)c2)cc1
    -8%	i
> CCOc1ccc(C2CC(=O)NC3=C2C(=O)CCC3)cc1 (stereo not given)
    -28%	/
> O=C(COC(=O)/C=C/c1ccc(Cl)cc1)Nc1ccc2[nH]c(=O)[nH]c2c1
    -5%	i
> CCn1cc(C(=O)O)c(=O)c2cc(F)c(N3CCN(C(=S)NC(=O)c4ccccc4F)CC3)cc21
    -12%	0%
> Cc1ccc(-n2nnnc2CN2CCCCC2)cc1
    -19%	-7%
> COc1ccc(-n2c(SCC(=O)Nc3nccs3)nc3sc4c(c3c2=O)CCN(C)C4)cc1
    -11%	i
> CCC(=O)Nc1ccc(C(=O)CSc2nc3ccccc3cc2CC)cc1
    -17%	-22%
> Cc1ccsc1C1C(C(=O)O)c2ccccc2C(=O)N1C (stereo not given)
    -7%	-14%
> CCOC(=O)N1CCN(C(=O)COC(=O)CSc2ccc([N+](=O)[O-])cc2)CC1
    -4%	-11%
> Cn1c(=O)n(C)c2cc(N3CCCCC3)c(NC(=O)Nc3ccc(Br)cc3)cc21
    -15%	-22%
> C#CCSc1n[nH]c(-c2ccco2)n1
    4%	i

As a short view, part of the list above:
Results follow in this order: Vaccinia Venus	VACV mCherry inh
> CC1Oc2cc3c(-c4c(O)cc(O)c5c(O)c6c(cc45)OC(C)C(C)C6=O)c(O)cc(O)c3c(O)c2C(=O)C1C (stereo not given)
    4µM*	?
> Cc1cc(C)c(S(=O)(=O)N2CCN(Cc3nc4ccc(C)cc4o3)CC2)c(C)c1
    -1%	-16%
> CCC(=O)Nc1ccccc1-c1nc2ccccc2n(CC(=O)Nc2ccc(C)c(C)c2)c1=O
    -8%	-1%
> COc1ccccc1C(CNC(=O)C(CCSC)NC(=O)c1ccccc1Cl)N1CCCC1 (stereo not given)
    -11%	-17%
> O=C(O)CCNS(=O)(=O)c1ccc(Oc2ccccc2)cc1
    -6%	i
> O=C(Cn1cc(S(=O)(=O)N2CCCC2)c(S(=O)(=O)N2CCCC2)c1)Nc1cccc(F)c1
    -2%	-5%
> CCOC(=O)CCC(NC(=O)CCCCCCCC(=O)NC(CCC(=O)OCC)C(=O)OCC)C(=O)OCC (stereo not given)
    -1%	-11%
> CCCN1CNc2c(c(=O)[nH]c(=S)n2CCc2cc(Cl)ccc2Cl)C1
    -24%	-9%
> CC(C)CNc1ncnc2c1ncn2[C@H]1CN(Cc2ccc(F)cc2)C[C@@H](CO)O1
    -2%	i
> O=C(CSC(=S)N1CCOCC1)Nc1ccc(S(=O)(=O)Nc2ncccn2)cc1
    2%	-9%
> CCOC(=O)NC(=O)CSc1ccc2ccccc2n1
    -19%	-7%
> COc1ccc(CCNC(=O)C2CCCN(C(=O)c3ccc(Cl)cc3)C2)cc1 (stereo not given)
    -5%	i

(next part)
Results follow in this order: Vaccinia Venus	VACV mCherry inh
> CC(C)NC(=O)N1[C@H](c2cccs2)[C@@H](C)C(=O)[C@@H](C)[C@@H]1c1cccs1
    -13%	-9%
> COc1cc(C(=O)NCC2CCCN2S(=O)(=O)c2cccs2)cc(OC)c1OC (stereo not given)
    -3%	-7%
> Cn1c(Cc2cccs2)nnc1SCC(=O)Nc1ccccc1F
    -21%	-3%
> COc1ccc(S(=O)(=O)N2CCCCC2)cc1NC(=O)Cc1cccs1
    -19%	i
> COC(=O)C1=C(CS(=O)(=O)c2ccc(OC)c(OC)c2)NC(=O)NC1c1ccc(O)c(OC)c1 (stereo not given)
    -8%	-3%
> CCc1c(C(=O)Nc2nnc(C3CC3)s2)csc1C
    -4%	-11%
> CCC1=C(C)CN(C(=O)NCCc2ccc(S(=O)(=O)NC(=O)NC3CCC(C)CC3)cc2)C1=O (stereo not given)
    -14%	i
> CC1=C(C(=O)N2CCN(c3ccc(Cl)cc3)CC2)C2(CCC(C)CC2)OC1=O (stereo not given)
    -13%	-11%
> O=C1CCCC2=C1C(c1ccco1)Nc1ccc3ccccc3c12 (stereo not given)
    -18%	-22%

High-throughput results: PubChem, National Center for Advancing Translational Sciences (NCATS)

The order is random; 0.86% or so of the library scored in one or more.
